Rango complex inh – Rango-importin beta binding inhibition. Q14974. Rango CFP/YFP FRET sensor + importin beta, 45 min. Potency, µM (doses to about 92.2 µM), for inactives: at the top dose inhibition of complex formation. actives 0.031% (n = 340,000); active = rising FRET ratio curve, often small or poorly fitted; inconclusive = mostly compound fluorescence or quenching in the first reads; inactive = flat curves in all reads;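 further: potency means the concentration at half of the fitted maximal effect; 0% = DMSO wells and 100% = buffer wells lacking importin beta; nearly all actives have a fitted effect of over 15% in size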
Target sequence (Q14974 whole entry, looked up): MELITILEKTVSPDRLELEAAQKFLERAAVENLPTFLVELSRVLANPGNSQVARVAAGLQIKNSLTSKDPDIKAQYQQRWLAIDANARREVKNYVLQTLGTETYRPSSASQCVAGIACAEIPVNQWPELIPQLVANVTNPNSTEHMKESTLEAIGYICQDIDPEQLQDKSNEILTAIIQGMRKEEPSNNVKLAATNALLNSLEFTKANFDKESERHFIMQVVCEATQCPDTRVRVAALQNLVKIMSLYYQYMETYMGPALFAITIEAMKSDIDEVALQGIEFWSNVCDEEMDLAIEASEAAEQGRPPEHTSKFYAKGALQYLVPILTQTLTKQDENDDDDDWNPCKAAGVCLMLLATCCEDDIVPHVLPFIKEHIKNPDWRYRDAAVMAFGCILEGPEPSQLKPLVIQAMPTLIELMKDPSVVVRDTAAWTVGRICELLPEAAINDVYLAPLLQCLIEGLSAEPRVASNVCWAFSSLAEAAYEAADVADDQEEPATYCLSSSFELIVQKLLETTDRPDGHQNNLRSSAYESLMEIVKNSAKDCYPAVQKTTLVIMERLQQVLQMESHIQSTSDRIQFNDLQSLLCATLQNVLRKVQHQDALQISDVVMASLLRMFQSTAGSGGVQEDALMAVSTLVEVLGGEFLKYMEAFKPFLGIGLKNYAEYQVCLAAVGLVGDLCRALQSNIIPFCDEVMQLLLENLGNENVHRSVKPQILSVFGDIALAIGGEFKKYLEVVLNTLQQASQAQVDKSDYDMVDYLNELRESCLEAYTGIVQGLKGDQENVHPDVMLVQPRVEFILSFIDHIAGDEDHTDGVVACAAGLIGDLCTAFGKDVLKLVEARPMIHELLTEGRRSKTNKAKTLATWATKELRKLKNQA
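Inhibition scored from the CFP 486 nm/YFP 530 nm FRET ratio 45 min after adding 0.125 microM importin beta to 50 nM Rango biosensor preincubated 5 min with compound (room temperature, PBS with DTT, Tween-20, BSA). No-importin wells as positive control.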
Rango dissoc inh – inhibition of RanGTP-driven Rango-importin beta dissociation; Biochemical FRET Rango-importin beta, RanGTP-induced dissociation; Potency, µM (top dose mostly 46.1 µM), for the others: at the top dose activity change, negative = inhibition; actives 0.071% (n = 340,000); AID 540253; active means falling FRET ratio curve, often poorly fitted, with flat reads before Ran was added; inconclusive means other falling curves, or compound fluorescence or quenching; inactive means flat or rising ratio curve;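 further: potency means the concentration at half of the fitted maximal effect; % of control where 0% means no effect; nearly all actives have a fitted effect of over 45% in size; -100% = wells without RanGTP and RCC1; the record marks most hits as doubtful in a second field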
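FRET read at 45 min, room temperature: inhibitors block the CFP/YFP signal rise when RanGTP (0.6 uM Ran, 2 mM GTP, 0.2 uM RCC1) frees Rango (0.1 uM) from importin beta (0.25 uM). Pre-read after 5 min compound exposure flags interference.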
GLA inh pH 4.5 – inhibitors of human alpha-galactosidase A at pH 4.5. P06280. purified enzyme, 4-MU-alpha-Gal fluorescence, pH 4.5. activity change, negative = inhibition, % at 105 µM. 230,000 tested, under 10 active; inconclusive = small, poorly fitted or top-dose-only inhibition, or a rising curve; inactive = flat fitted curve, though single readings scatter; no compound was filed as active;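 further: 0% = full activity with enzyme and -100% = basal without enzyme; dose as in the result columns while the protocol names 77 µM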
miR-21 reporter – miR-21 reporter, rising signal; HeLa miR-21 FLuc reporter, luciferase, 48 h; Potency, µM (top dose mostly 38.3 µM), inactives show top-dose reporter change, positive = more light; 340,000 tested, under 10 active; AID 2288; active = well fitted rising curve with a large enough effect; inconclusive = small, poorly fitted or top-dose-only effect; inactive = no such curve, though single readings can be large or run the other way;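 further: % of control where 0% means no effect; miR-21 action dims this reporter so a rising signal means less miR-21 action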
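HeLa cells stably expressing CMV-driven firefly luciferase with a downstream miR-21 binding sequence, endogenously expressing miR-21, were treated with titrations (up to about 40uM final) for 48 hours at 37 degree Celsius. Luciferase luminescence was read after lysis.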
Active calls of the source: *; ? = inconclusive; . = not tested or not shown. An excerpt; the hit share may differ from the screen's.

compound | Rango complex inh | Rango dissoc inh | GLA inh pH 4.5 | miR-21 reporter
O=C(O)c1[nH]c2ccccc2c1NS(=O)(=O)Cc1ccccc1 | -0.7% | -1% | 7 | -5%
CCCCCCCCNc1ccccc1S(=O)(=O)NCc1ccccc1 | 0.3% | 8% | . | .
COCCCN(C(=O)Nc1ccccc1)C(C)c1ccncc1 (centres undefined) | 0.8% | 11% | -5 | -10%
COC(=O)c1ccc(OC(=O)c2cccnc2SC)cc1 | -0.2% | -11% | . | 0%
Fc1ccc(C(c2nnnn2Cc2ccco2)N2CCN(C3CCCCC3)CC2)cc1 (centres undefined) | -2.5% | 0% | -10 | -4%
Cc1cc(NC(=O)CSc2nc(-c3ccccc3)nc3c2c(=O)n(C)c(=O)n3C)no1 | 0.1% | -8% | 7 | -2%
COC(=O)c1ccc(COC(=O)c2cc3ccccc3oc2=O)cc1 | 2.3% | 9% | . | -23%
COc1ccc(NC(=O)CN(c2c(C)cccc2C)S(C)(=O)=O)cc1 | -1.5% | -8% | . | -2%
CCOC(=O)C1CCCN(C(=O)Cn2cccc2C(=O)c2ccccc2)C1 (centres undefined) | 1.9% | -10% | -16 | -12%
COc1ccccc1CNC(=O)c1cc(-c2ccccc2C)n(CC2CC(c3cccc([N+](=O)[O-])c3)=NO2)n1 (centres undefined) | 0.4% | 5% | . | .
COc1cc(NS(=O)(=O)c2ccc3c(c2)oc(=O)n3C)cc(OC)c1OC | -1.4% | 1% | 0 | 22%
Cc1oc2c(c1C(=O)NCc1ccccc1)CCCC2 | -2.0% | -12% | -3 | -8%
CCOc1ccccc1/C=C/c1onc(C)c1S(=O)(=O)N1CCC(C(=O)NC(C)(C)C)CC1 | 2.3% | -11% | . | 19%
COc1ccc(O)c(C(=O)c2cc(C#N)c(=O)n(CC3CCCO3)c2)c1 (centres undefined) | 10% | -18% | -5 | -11%
O=C(O)c1nccnc1C(=O)N1CCN(c2ccccc2)CC1 | -4.8% | 15% | 0 | 2%
CC(C)CC(=O)Nc1nnc(SCC(=O)NCC2CCCO2)s1 (centres undefined) | 4.5% | -6% | . | -2%
CCN(CC)c1nc(N(CC)CC)[nH]c(=O)n1 | -4.3% | -9% | . | .
CCc1nnc(NC(=O)CSc2ccc(Cl)cc2)s1 | -0.1% | -10% | . | -6%
COCCn1c(SCC(=O)Nc2ccccc2C(F)(F)F)nc2ccccc2c1=O | 0.9% | -22% | . | 1%
CCCCCCCCNc1ncnc2ccccc12 | 1.4% | -9% | -4 | 23%
CCOC(=O)N1CCN(C(=O)c2ccc(Cl)nc2)CC1 | -0.1% | -4% | 6 | -4%
COc1ccc(C(=O)O)cc1NCc1ccc(C)s1 | -4.0% | 7% | . | 2%
O=C(COC(=O)c1ccc(Cl)nc1)NCCc1ccc(Cl)cc1 | 0.0% | 4% | . | .
CC1=Nc2cc(C(=O)NCC3CCCO3)ccc2Sc2ccc(Br)cc21 (centres undefined) | -0.6% | -4% | -21 | 25%
Nc1cc(N)cc(-c2nc3ccccc3[nH]2)c1 | -0.4% | -7% | -10 | -19%
CCOc1ccc(N=C2NC(=O)/C(=C/C(=O)OC)S2)cc1 | -1.4% | -6% | -5 | -7%
O=C(O)c1cc2c(=O)c3ccccc3oc2nc1C(F)(F)F | -1.2% | -3% | . | 1%
CCCCc1ccc(NC(=O)CSc2nnc(C)c(=O)n2N)cc1 | -1.4% | -16% | . | 0%
COc1ccc(S(=O)(=O)N2CCOCC2)cc1NC(=O)CC1CC2CCC1C2 (centres undefined) | 1.2% | 10% | . | .
Cc1ccc(S(=O)(=O)N(C)c2cc(S(=O)(=O)Nc3ccncc3)c(C)cc2C)cc1 | -1.9% | -3% | -7 | -5%
O=C(CN1CCC(n2nnc3cc(F)ccc32)CC1)NCCc1nc2ccccc2[nH]1 | -8.0% | 18% | 4 | -2%
CC(=O)Nc1cccc(-c2nc3ccc(NC(C)=O)cc3s2)c1 | -6.3% | -7% | 10 | -42%
Cc1ccc(OCCn2cc(/C=N/NC(=O)c3ccncc3)c3ccccc32)cc1 | -1.2% | 1% | -3 | 0%
CCOC(=O)C1(CCc2ccccc2)CCN(C(=O)CCn2cnnn2)CC1 | 1.2% | 7% | 3 | -21%
CCOC(=O)N1CCN(C(=O)COCc2cc(-c3ccc4c(c3)OCO4)on2)CC1 | -0.6% | 10% | . | -11%
CCCCN(C(=O)c1cccc(-c2ccc(OC(C)=O)cc2)c1)c1c(N)n(CCC)c(=O)[nH]c1=O | 0.5% | 35% | . | .
Cc1cccc(N(CC(=O)N2CCN(c3ccc(F)cc3)CC2)S(C)(=O)=O)c1C | 0.6% | 13% | 2 | 0%
COc1c(/C=N/Nc2ccc(C(=O)O)cc2)c(CCN(C)C(C)=O)cc2c1OCO2 | 7.4% | 18% | -21 | -12%
NS(=O)(=O)c1ccc(CNC(=S)NC2CC2)cc1 | -0.2% | -19% | 4 | -4%
O=C(O)c1ccc(Cl)c(S(=O)(=O)Nc2ccc3[nH]c(=O)[nH]c3c2)c1 | ? | ? | -1 | 0%
CCN1/C(=C/C=C/c2oc3ccc(-c4ccccc4)cc3[n+]2CC)Oc2ccc(-c3ccccc3)cc21 | . | ? | -21 | ?
COC(=O)c1ccccc1NC(=O)c1cc(OC)cc(OC)c1 | 0.3% | -6% | -7 | -7%
Cc1ccccc1NC(=O)c1ccc(Nc2c([N+](=O)[O-])cc([N+](=O)[O-])c3ccccc23)cc1 | -0.4% | 1% | -5 | ?
COc1cc(Br)cc(C2C3=C(CCCC3=O)N(c3ccc(F)cc3)C3=C2C(=O)CCC3)c1O | -1.4% | -10% | -4 | -9%
Cc1ccc(S(=O)(=O)N2CCN(C(=O)c3ccc(-n4cncn4)c([N+](=O)[O-])c3)CC2)cc1C | -4.5% | 9% | . | .
CC/C(Cc1ccccc1)=N/NC(=O)CNC(=O)c1ccc(Cl)cc1Cl | -4.9% | 10% | . | 0%
O=S(=O)(N1CCCCCC1)N1CCN(S(=O)(=O)N2CCCCC2)CC1 | 1.6% | 0% | -12 | 1%
CCOc1ccc(CCN2C(=S)N([C@@H](CC(C)C)CN3CCCC3CN3C(=S)NC[C@@H]3CC(C)C)C[C@@H]2Cc2ccccc2)cc1 (some centres undefined) | -0.7% | 2% | . | .
CCOc1ccc(-c2nc(N)ncc2-c2ccc(OC)cc2)c(O)c1 | 1.9% | -9% | -6 | -4%
COc1ccccc1NC(=O)Cc1ccc(-c2ccccc2)cc1 | 1.2% | 2% | . | -30%

Shown with values ahead of the structure: entries from further up
Rango complex inh	Rango dissoc inh	GLA inh pH 4.5	miR-21 reporter	SMILES
-1.4%	-10%	-4	-9%	COc1cc(Br)cc(C2C3=C(CCCC3=O)N(c3ccc(F)cc3)C3=C2C(=O)CCC3)c1O
-8.0%	18%	4	-2%	O=C(CN1CCC(n2nnc3cc(F)ccc32)CC1)NCCc1nc2ccccc2[nH]1

Going on with the list:
compound | Rango complex inh | Rango dissoc inh | GLA inh pH 4.5 | miR-21 reporter
COc1ccc(-c2ccc3sc4ccccc4c(=O)c3c2)cn1 | -3.9% | -5% | . | .
C1CN(c2nc(N3CCOCC3)nc(N3CCOCC3)n2)CCO1 | -2.2% | 1% | -2 | -11%
COC(=O)c1ccc(COc2ccccc2/C=C(\C#N)C(=O)Nc2c(C)cc(C)cc2C)cc1 | -0.7% | 2% | -19 | 17%
CC(=O)O[C@@H]1[C@@H](O)[C@@H](O)[C@H](Oc2c(-c3ccc(O)cc3)oc3c(CC=C(C)C)c(O)cc(O)c3c2=O)O[C@H]1C | 1.9% | 2% | . | .
O=c1[nH]c2ccccc2nc1/C=C/c1ccc(Cl)cc1 | ? | ? | -2 | -41%
O=C(CCCOc1ccc(Cl)cc1Cl)NCCCO | 0.7% | -5% | -5 | -21%
Cc1cc(C)cc(NC(=S)N2CCN(CCO)CC2)c1 | 0.9% | 6% | 6 | -3%
Cc1cnn(CCC(=O)NNC(=S)Nc2ccccc2)c1 | ? | ? | -6 | 1%
COCCn1nnnc1C(c1cccc(C(F)(F)F)c1)N1CCN(Cc2ccccc2)CC1 (centres undefined) | 1.5% | 3% | -4 | 0%
CCN1CCN(c2ccc(S(=O)(=O)N3CCCCC3)cc2NC(=O)c2ccc(C)o2)CC1 | 8.0% | -9% | . | .
O=C(Nc1ccc(N2CCOCC2)cc1)c1ccc(Cl)cc1N1CCCC1=O | -0.7% | 1% | . | .
C=CCOc1ccc(/C=C/C(=O)OCC(=O)N(C)CC(=O)Nc2ccccc2Cl)cc1 | -0.8% | 20% | . | .
O=C(CSc1nc2ncccc2[nH]1)NCc1ccco1 | 0.2% | 10% | . | -1%
Cc1c(C(=O)Nc2ccc(S(=O)(=O)N(C)C3CCN(C)CC3)cc2)oc2c(Cl)cccc12 | -1.2% | 9% | . | .
COC(=O)Nc1ccc(S(=O)(=O)N2CCCC(C(=O)N3CCN(C)CC3)C2)cc1 (centres undefined) | 3.6% | 7% | 5 | 0%
CCCCCCCSc1nc(N)cc(=O)[nH]1 | 0.6% | 3% | -9 | -9%
CN(C)C(=O)c1snnc1-c1ccccc1 | -0.4% | 2% | 0 | -1%
CC(C)COC(=O)c1cccc2c1-c1ccccc1/C2=N\O | 5.3% | -12% | -10 | -4%
COc1ccc(-n2c(C)nc3cc(C(=O)N4CCOCC4)ccc32)cc1 | 4.4% | 9% | -3 | -10%
O=C(CCNC(=O)c1ccccc1Cl)Nc1cc(C(F)(F)F)ccc1N1CCCC1 | -0.3% | 5% | . | 10%
O=C1NC(Nc2nccs2)(C(F)(F)F)C(=O)N1CCc1ccccc1 (centres undefined) | 0.3% | -4% | -2 | -1%
COc1ccc(C2(CNC(=O)c3ccc(C)cc3)CCOCC2)cc1 | -4.9% | -22% | 1 | -7%
COc1ccc(S(=O)(=O)N2Cc3ccccc3CC2C(=O)Nc2nccs2)cc1 (centres undefined) | 0.3% | 13% | -2 | -29%
O=c1c2ccccc2sn1-c1cc(S(=O)(=O)N2CCOCC2)ccc1N1CCCC1 | 1.0% | -6% | 6 | 7%
Cc1cc(N2CCCC2)ccc1/C=C1/C(=O)N(C)C(=S)N1C | 4.4% | -4% | 8 | -2%
Cc1cccc2cc(CN(CCCO)C(=O)Nc3ccccc3Cl)c(=O)[nH]c12 | 5.6% | 10% | -10 | -5%
CCOc1ccc(S(=O)(=O)N2CCN(C(=O)C3CCC3)CC2)cc1 | -2.9% | ? | . | .
COc1ccc(/C=C(\C#N)C(=O)Nc2cccnc2)cc1 | -4.6% | -1% | -4 | -3%
COC(=O)CCC(=O)OC1(C)C(=O)C2=CN(c3ccccc3)C(c3ccc(OC)cc3)=CC2=C(Br)C1=O (centres undefined) | ? | 16µM* | 5 | .
Cc1cc(=O)n2nc(N3CCCC(C(=O)NC4CCC(C)CC4)C3)sc2n1 (centres undefined) | 2.3% | 9% | . | 2%
Clc1ccc2noc(-c3ccccc3)c2c1 | -2.9% | -24% | -2 | 0%
CCC/C(O)=C1\C(=O)CCCC1=NCCc1ccc(OCC)c(OCC)c1 | -2.7% | -2% | -10 | -4%
C=CCn1c(C(CCCC)CC(O)COCCC)n[nH]c1=S (centres undefined) | 5.2% | 1% | 8 | 1%
CC(=O)NCCn1c(SCc2cc(=O)n3cc(Cl)ccc3n2)nc2ccccc2c1=O | -1.5% | -1% | -4 | -10%
CCCC(C)n1[nH]c(=O)c2c(C)cc(C)nc21 (centres undefined) | 0.2% | 8% | -4 | -9%
CC(OC(=O)CC1Sc2ccccc2NC1=O)C(=O)NC1CCCC1 (centres undefined) | 1.2% | -9% | . | 2%
O=C(Cn1ncc2c(=O)oc3ccccc3c21)N1CCN(C(=O)c2ccco2)CC1 | 1.3% | -2% | 1 | -5%
CCc1ccc(-n2c(SCC(=O)NC3CCS(=O)(=O)C3)nc3ccccc3c2=O)cc1 (centres undefined) | -0.1% | 1% | . | .
CCc1ccc(N(CC(=O)N2CCN(Cc3ccccc3)CC2)S(C)(=O)=O)cc1 | 4.4% | 0% | . | 3%
Cc1ccc(S(=O)(=O)N(C)C)cc1NC(=S)NCc1ccco1 | 0.2% | -13% | 3 | 6%
COc1cc(/C=C2\COC/C(=C\c3cc(OC)c(OC)c(OC)c3)C2=O)cc(OC)c1OC | ? | 11% | -9 | ?
O=C(CSc1c[nH]c2ccccc12)N1CCCc2ccccc21 | -0.1% | 1% | -11 | -9%
